Screening results deposited in PubChem by several laboratories.
PABP polyA inh – blocks human PABP binding to poly(A) RNA; P11940; fluorescence polarization; 1% of 290,000 active; inhibition, % at 35 µM;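 active means 50% or more with normal probe brightness, or confirmed in later tests; inconclusive means above 50% with abnormal brightness, or retests that disagree; inactive means below 50% or failed in later tests; about a fifth of its hits are not listed in these tables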;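 further: calls also rest on retests at 20 µM and on dose response follow-up; controls were probe without protein and protein plus probe with vehicle; some compounds called inactive have numbers as strong as hits; many hits fall short of the cut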
Rce1 inhib – blocks yeast Ras-converting enzyme; Q03530; yeast membranes, quenched prenylated peptide cleavage fluorescence; calls only; 0.27% of 290,000 active;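 active means fall in fluorescence gain of 50% or more versus controls, with final raw signal at or below 3038400; inconclusive means same 50% fall but final raw signal above 3038400; inactive means fall in fluorescence gain under 50%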;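 further: plate controls were neutral control wells for no effect and wells lacking membranes for full effect; tested at 10 µM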
Target sequence (Q03530 whole entry, looked up): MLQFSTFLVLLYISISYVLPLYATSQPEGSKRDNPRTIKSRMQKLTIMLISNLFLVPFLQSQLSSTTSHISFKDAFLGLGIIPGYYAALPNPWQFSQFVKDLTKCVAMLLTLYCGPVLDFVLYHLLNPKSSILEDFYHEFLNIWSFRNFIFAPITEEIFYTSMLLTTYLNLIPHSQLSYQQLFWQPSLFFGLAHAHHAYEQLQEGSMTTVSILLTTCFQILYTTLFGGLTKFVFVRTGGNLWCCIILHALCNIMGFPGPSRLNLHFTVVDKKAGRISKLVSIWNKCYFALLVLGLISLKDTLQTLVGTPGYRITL
eIF4H inh – inhibitors of RNA binding by human eIF4H | Q15056 | eIF4H fluorescence polarization binding assay | inhibition, % at 35 µM | 0.94% of 290,000 active | AID 2012;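 active means 50% or more with normal probe brightness, or confirmed in later tests; inconclusive means above 50% with abnormal brightness, or retests that disagree; inactive means below 50% or failed in later tests; about a fifth of its hits are not listed in these tables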;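 further: calls also rest on retests at 20 µM and on dose response follow-up; 0% = protein and probe with vehicle and 100% = probe without protein; strong numbers were not always called active; many hits fall short of the cut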
MT1-MMP act inh – MT1-MMP (human) activation inhibition; P50281; HT1080 RFP-PRO-GFP cells, GFP/RFP ratio fluorescence, overnight; percent of plate control window, DMSO zero; GFP/RFP ratio change, % at 20 µM; 0.061% of 360,000 active; AID 651647;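 active means GFP/RFP ratio change of at least 30% with cell ATP level not reduced by more than half and red fluorescence within 50% of control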; further: strong numbers were not always called active
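Material – HT1080 RFP-PRO-GFP cells · Control set – DMSO wells and RFP-L50D-GFP cells · Incubation – overnight cell settling, then overnight compound exposure, 37 °C, 5% CO2 · Compound dosing – single-point 20 µM compound, 1% DMSO · Read-out – GFP/RFP fluorescence ratio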
CSC inhib – cancer stem cell inhibition. cancer stem cell-like cells viability, luminescence. inhibition, % at 7.5 µM. 1.1% of 300,000 active. AID 2717;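 active means mean at 75% or more and at least half the replicates too; inconclusive means mean and replicates disagree; tested in HMLE shEcad cells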;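 further: 0% = median of negative and 100% = median of positive control wells; the first replicate is given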
Yeast UUG start – alters start codon recognition fidelity in yeast; S. cerevisiae UUG-firefly luciferase reporter, luminescence/redox ratio; activity score, % at 18.7 µM; 0.13% of 350,000 active;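 active means replicate mean at a twofold rise or more, about +100% in these data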;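 further: firefly luciferase made from a UUG start codon reports start codon fidelity; reporter light over untreated wells divided by growth signal over untreated wells; some hits fall short of that in this replicate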
HIV Env fusion – inhibitors of HIV Env-mediated cell fusion | 1.1% of 360,000 active | HeLa-JRFL Env/CEM21 cell fusion, luciferase | inhibition, % at 12.3 µM;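 active means mean replicate inhibition score of at least 50 and every replicate individually at or above 50; inconclusive means only one of the two criteria met; inactive means mean below 50 and not all replicates reaching 50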;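 further: 0% = plate neutral controls and 100% = maraviroc near 300 nM; one replicate is shown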
eIF4H inh retest – also measured in eIF4H inh; calls as there; inhibition, %; compound at 20 µM; confirmation average;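 mean of two retest wells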
PABP polyA inh retest – also measured in PABP polyA inh; calls as there; inhibition, %; compound at 20 µM; confirmation repeats;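 mean of two retest wells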
MT1-MMP act inh RFP – also measured in MT1-MMP act inh; calls as there; RFP signal change, %; measured here: RFP expression control read;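 0 = vehicle wells; hits needed this value within 50% of zero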
Starred values were filed as active, the others as inactive; i = inactive; ? = inconclusive; · = no result given. This is a subset, so the mix of outcomes need not match the whole.

SMILES	PABP polyA inh	Rce1 inhib	eIF4H inh	MT1-MMP act inh	MT1-MMP act inh RFP	CSC inhib	Yeast UUG start	HIV Env fusion	others
CC(=O)c1ccc(C(=O)N2CCCC(CCC(=O)N(C)CCc3ccccn3)C2)s1 (configuration not stated)	-5	i	6	3	5	18	-5	17
COc1ccc(OC)c(NC(=O)c2ccc3c(=O)n(CCc4ccccc4)c(=S)[nH]c3c2)c1	-4	i	2	0	-14	4	-13	-18
COc1ccccc1CNC(=O)C1CC(c2ccc([N+](=O)[O-])cc2)=NO1 (configuration not stated)	-1	i	-5	2	-3	-3	-14	-22
O=S(=O)(NCc1cc(-c2ccc(Cl)cc2)no1)c1ccc(Cl)cc1	-8	i	-6	3	-6	7	·	-5
COc1ccc(Cl)cc1NC(=O)CN(C)C(=O)c1sccc1-c1ccccc1	·	·	·	-1	-9	16	-24	15
CCOC(=O)Cn1c(=O)c2c(nc3n2CCCN3Cc2ccccc2)n(C)c1=O	-4	i	-2	2	-1	-9	-5	14
CN(CC(=O)O/N=C(\N)c1ccc([N+](=O)[O-])cc1)S(=O)(=O)c1ccc2ccccc2c1	-2	i	-2	0	0	9	·	-12
NC(=O)CSc1nnc(CNc2cccc(Cl)c2)n1CCc1ccccc1	0	·	-7	-2	-4	-12	-12	-79
Cc1cc(C)c(C)c(S(=O)(=O)N[C@@H](C)C(=O)OCC(=O)NC2CCCC(C)C2C)c1C (some centres not stated)	·	·	·	-1	4	2	-27	-4
Cc1ccccc1S(=O)(=O)NC(=O)C1(C)CCN1C(=O)C1(c2ccc(Cl)cc2)CCC1 (configuration not stated)	·	·	·	-1	4	·	-10	-3
Cn1c(=O)c2c(ncn2CC(=O)Nc2nccs2)n(C)c1=O	-5	i	-1	2	2	-17	-10	7
C[N+](C)(C)CC(=O)N/N=C/c1c2ccccc2cc2ccccc12	12	i	-6	4	6	-19	-17	0
CCOC(=O)c1cnc(SCCc2ccccc2)nc1N	3	i	-10	-4	1	0	-32	-96
O=C(Cn1nc(C(F)F)cc1C(F)F)NNC(=S)Nc1ccc([N+](=O)[O-])cc1	-1	i	4	-1	0	7	·	20
COc1cc(NC(=S)N2CCN(C(=O)C3CCCO3)CC2)c(OC)cc1Cl (configuration not stated)	0	i	-7	2	3	-7	·	2
COCCCN1C(=O)c2[nH]nc(-c3ccccc3O)c2C1c1ccc(Cl)cc1 (configuration not stated)	6	i	-2	-8	-18	39	-8	-116
Cc1ccc(S(=O)(=O)N2CCC(C(=O)C3C(=O)CC(C)(C)CC3=O)CC2)cc1	5	i	13	4	9	-14	·	-11
CCOCCCNC(=O)C(c1ccc(Cl)cc1)N1CCN(c2ccccc2)CC1 (configuration not stated)	-1	i	4	-2	5	-6	1	-20
CCCn1c(SC(C(=O)Nc2cccc(OC)c2)c2ccccc2)nc2ccccc2c1=O (configuration not stated)	16	i	-7	1	6	13	-3	-14
C#CCSc1nnnn1-c1ccc(OCC)cc1	-5	i	-15	0	0	-8	4	-7
O=C(NCc1ccncc1)C1CCCN1S(=O)(=O)c1ccc(Cl)cc1 (configuration not stated)	3	i	-15	8	6	-2	-5	-4
CCC(=O)c1ccc(NC(C)=O)cc1O	51*	i	77*	-2	2	5	·	4
N=c1c(C(=O)NCC2CCCO2)cc2c(=O)n3ccccc3nc2n1Cc1ccco1 (configuration not stated)	22	·	23	-1	-1	-9	-8	1
CSc1nnc(NC(=O)c2ccc(S(=O)(=O)N(C)C)cc2)s1	5	i	7	2	3	6	·	-12
O=C(CSc1nc2ccccc2[nH]1)Nc1cccc(S(=O)(=O)N2CCOCC2)c1	4	i	11	7	-4	-9	-13	13
SMILES	PABP polyA inh	Rce1 inhib	eIF4H inh	MT1-MMP act inh	MT1-MMP act inh RFP	CSC inhib	Yeast UUG start	HIV Env fusion	others
COC(=O)c1ccc(COC(=O)CNC(=O)c2cccs2)cc1	-3	i	-6	-3	-3	-3	-6	·
C/C(=N\Nc1nccnc1Cl)c1ccc(O)cc1	15	i	2	-3	-1	-7	-13	-8
COc1cc(OC)cc(N(C(=O)CNC(=O)c2cccs2)C(C(=O)NCC2CCCO2)c2ccc(OC)c(OC)c2)c1 (configuration not stated)	1	i	-7	1	1	-7	·	-22
C[C@]12C(=O)N(c3ccc(C(F)(F)F)cc3)C(=O)N1[C@H]1c3ccccc3OC[C@@H]1[C@H]2c1ccccc1	·	·	·	1	2	8	21	-10
CCOC(=O)c1c(NC(=O)CSc2cn(CC)c3ccccc23)sc2c1CCC2	1	i	2	-2	-6	18	-1	41
Cn1cnc(S(=O)(=O)N2CCCCC2c2cc(C(=O)NCc3ccc(F)cc3)no2)c1 (configuration not stated)	·	·	·	-2	0	·	-12	2
O=C(NCc1cccnc1)c1ccccc1CCc1ccccc1	-6	i	-5	5	-1	-3	-19	4
O=C(CNCc1ccccn1)Nc1cc(S(=O)(=O)N2CCCCC2)ccc1Cl	20	i	3	6	-9	9	·	34
Cc1csc(NC(=O)CS(=O)(=O)c2ccccc2)n1	64*	i	83*	-2	0	-9	-15	-12
CC(C)Cc1nnc(NC(=O)CCC(=O)N2CCN(Cc3ccc(F)cc3)CC2)s1	-1	i	-13	6	-3	-17	-11	4
COc1nc(/C=C/N(C)C)c([N+](=O)[O-])c(OC)n1	12	i	-5	-5	0	3	·	-108
Clc1ccc(CSc2nnc(CNc3cccc(Cl)c3)o2)cc1	5.5*	i	63*	3	-1	-6	·	·	eIF4H inh retest=100*;PABP polyA inh retest=95*
CCC(Oc1ccccc1)C(=O)Nc1ccc(S(=O)(=O)N2CCOCC2)cc1 (configuration not stated)	-14	·	5	7	-5	-11	0	·
CC1CN(C(=O)Nc2ccc3c(c2)OCO3)CC(C)O1 (configuration not stated)	-2	i	-7	4	8	-9	-7	-30
COc1ccc2cc(C(=O)NCCc3ccccc3)[nH]c2c1	-8	i	-11	4	0	7	-7	-16
CCOC(=O)Cn1nc(C)cc1NC(=O)c1ccncc1	8	i	6	4	2	-6	·	-5
Cc1c(C)c2ccc(OCC(=O)N(C)C)c(C)c2oc1=O	-6	i	4	-18	8	-2	-26	·
N#CCCN(C(=O)CCl)c1cccc(Cl)c1	-12	i	-1	-3	-1	21	-19	15
N/C(=N\c1nc(CSc2nnnn2-c2ccccc2)cc(=O)[nH]1)Nc1ccccc1	-5	i	2	·	·	-5	·	21
Cc1cc(C)c(S(=O)(=O)Nc2cccc(S(=O)(=O)NC3=NCCC3)c2)c(C)c1	-12	i	0	0	3	-12	·	25
Cc1nc(C(F)(F)F)ccc1C(=O)N1CCC1(C)C(=O)NS(C)(=O)=O (configuration not stated)	·	·	·	-2	0	·	-17	-118
O=c1cc(C(F)(F)F)nc(-n2[nH]c3c(c2=O)CCCC3)[nH]1	?	i	?	-13	1	4	-32	39
CCCCN(C=O)c1c(CC)nc2ccc(C(=O)NCCCN3CCCC3=O)cn12	·	·	·	3	4	·	-9	4
CCN(CC(=O)NCc1ccc(F)cc1)C(=O)/C=C/c1cc(OC)ccc1OC	0	i	-8	-1	-4	·	-15	11
CC(=O)CC(c1ccc([N+](=O)[O-])cc1)c1c(O)c2ccccc2oc1=O (configuration not stated)	18	i	-9	3	-1	6	-7	·

Compounds from the list above that have fluorine:
SMILES	PABP polyA inh	Rce1 inhib	eIF4H inh	MT1-MMP act inh	MT1-MMP act inh RFP	CSC inhib	Yeast UUG start	HIV Env fusion	others
O=C(Cn1nc(C(F)F)cc1C(F)F)NNC(=S)Nc1ccc([N+](=O)[O-])cc1	-1	i	4	-1	0	7	·	20
C[C@]12C(=O)N(c3ccc(C(F)(F)F)cc3)C(=O)N1[C@H]1c3ccccc3OC[C@@H]1[C@H]2c1ccccc1	·	·	·	1	2	8	21	-10
Cn1cnc(S(=O)(=O)N2CCCCC2c2cc(C(=O)NCc3ccc(F)cc3)no2)c1 (configuration not stated)	·	·	·	-2	0	·	-12	2
CC(C)Cc1nnc(NC(=O)CCC(=O)N2CCN(Cc3ccc(F)cc3)CC2)s1	-1	i	-13	6	-3	-17	-11	4
Cc1nc(C(F)(F)F)ccc1C(=O)N1CCC1(C)C(=O)NS(C)(=O)=O (configuration not stated)	·	·	·	-2	0	·	-17	-118
O=c1cc(C(F)(F)F)nc(-n2[nH]c3c(c2=O)CCCC3)[nH]1	?	i	?	-13	1	4	-32	39
CCN(CC(=O)NCc1ccc(F)cc1)C(=O)/C=C/c1cc(OC)ccc1OC	0	i	-8	-1	-4	·	-15	11

The list continues:
SMILES	PABP polyA inh	Rce1 inhib	eIF4H inh	MT1-MMP act inh	MT1-MMP act inh RFP	CSC inhib	Yeast UUG start	HIV Env fusion	others
CCOC(=O)C1CCN(c2c(NC3CCCCCCC3)c(=O)c2=O)CC1	7	i	2	6	2	-10	-32	15
CCOC(=O)c1[nH]c(C)c(CC(C)C)c1C	3	i	-2	0	-8	6	·	·
CC(=O)c1cccc(-c2ccnc3c2CC(C(=O)Nc2cccc(OC(F)(F)F)c2)O3)c1 (configuration not stated)	·	·	·	5	-11	·	1	0
COc1ccc(Cl)cc1NC(=O)NCC1CCN(Cc2ccccc2F)CC1	-14	i	-8	2	-12	6	-8	3
c1csc(-c2nc3c4ccccc4c4ccccc4c3[nH]2)c1	32	i	-5	2	2	58	-12	-76
COCCCn1c(SCc2ccccc2)nc2cc(OC)c(OC)cc2c1=N	10	i	10	8	-2	68	-6	?
CCCn1c(SCC(=O)NC2CCCC2)nnc1-c1ccccn1	5	i	4	0	4	-21	-23	7
O=S(=O)(Nc1ccccc1Cl)c1cc(NC(=S)NCCN2CCOCC2)ccc1Cl	-1	i	-9	0	-2	-5	-27	-6
COc1ccccc1CNC(=O)CCn1c(=O)oc2ccccc21	-3	i	-10	1	3	0	-9	-16
COc1ccc(OCc2nnc3n2N=C(c2ccc(OC)cc2)CS3)cc1	4	i	-9	0	0	23	-9	11
